# Screening results deposited in PubChem by Center for Chemical Genomics, University of Michigan.
# CDC25B CDK2 inh: human CDC25B-CDK2/CyclinA binding inhibition. P30305+P24941. HTRF CDC25B-CDK2/CyclinA binding, anti-His/anti-Flag; hits give high values. z-score (no concentration beside the values). 0.72% of 94,000 active. AID 1259370;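 also: score is relative to mean and SD of negative controls; strong numbers were not always called active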
# TAR Tat displ: HIV-1 TAR-Tat binding disruption; 0.6% of 100,000 active; z-score (no concentration beside the values); HIV-1 TAR RNA, Tat peptide displacement FRET; hits give high values;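 also: score is relative to mean and SD of negative controls; some compounds called inactive have numbers as strong as hits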
# * hit, by the source's call; nt = not tested or not shown.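 The calls were made as follows: active = z-score from 3 up in half or more of its runs; inactive = the rest.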 The list is partial; rates above refer to the full screens.
SMILES,CDC25B CDK2 inh,TAR Tat displ
CC(C)n1[nH]c(=O)c2c1NC(=O)CSC2c1ccc(Br)cc1 (stereo not given),-1.8,nt
COc1cc(C(=O)O)cc(OC)c1OC,nt,2.05
CC12CCC3C(CC=C4CC(O)CCC43C)C1CCC2=O (stereo not given),nt,2.88
Cc1cc(OC(=O)N(C)C)cc(=O)n1C,-1.86,nt
Nc1ccc(Br)cc1C(=O)c1ccccc1F,0.57,nt
Cc1cc(C)nc(-n2nc(C)c3c2NC(=O)CSC3c2ccccc2Br)n1 (stereo not given),-2.21,0.02
Cc1nc2ccccc2c(=O)n1C1CCNCC1,nt,2.22
Cn1cccc1CNCCc1ccc(F)cc1,-1.35,-1.89
C[C@@H]1OC(=O)[C@H]2C[C@H]3CCCC[C@@H]3[C@@H](/C=C/[C@H]3CCC[C@H](C)N3C)[C@@H]12,nt,3.19
O=C1C2CCCN2C(c2ccccc2)N1c1ccccn1 (stereo not given),-0.97,nt
CCC(N)C(O)c1ccc(O)c(O)c1 (stereo not given),nt,0.98
C=CCOc1ccc(C2SCC(=O)Nc3c2c(C)nn3-c2ccc(C)cc2)cc1 (stereo not given),-1.24,1.23
O=S(=O)(c1ccc(Cl)cc1)N1CN2CCN(C2)C1,-1.51,nt
C[C@]12CCC(=O)C=C1C=CC1C2CC[C@@]2(C)C1CC[C@@]2(O)CCC(=O)O (stereo not given in full),nt,2.08
Clc1ccc(CO/N=C(\Cn2ccnc2)c2ccc(Cl)cc2Cl)c(Cl)c1,nt,2.43

SMILES,CDC25B CDK2 inh,TAR Tat displ
O=C(O)CN(CC(=O)O)[N+](=O)[O-],-0.1,nt
Cc1cccc(-c2nc(N(C)C3CCN(C)CC3)c3ccccc3n2)c1,-0.53,0.16
C[N+]1([O-])[C@H]2CC(OC(=O)C(CO)c3ccccc3)C[C@H]1[C@H]1O[C@H]12 (stereo not given in full),nt,1.87
CNC(=O)CSP(=S)(OC)OC,nt,-1.25
CC(Cc1ccccc1)[n+]1cc(N)on1 (stereo not given),-2.8,2.14
CCCCOC(=N)c1c[nH]c2ccccc12,-0.03,nt
c1ccc2c(c1)Nc1ccccc1S2,nt,-1.72
O=C1c2ccccc2C(=O)N1CN(Cc1csc2ccccc12)CN1C(=O)c2ccccc2C1=O,-1.24,nt
Cc1cc(C)nc(-n2nc(C)c3c2NC(=O)CSC3c2ccccc2OC(C)C)n1 (stereo not given),0.91,-0.18
CCOC(=O)C1SC2(C(F)F)CC1(O)c1c(c(OC)c3occc3c1OC)O2 (stereo not given),0.61,nt
c1ccc2c(C3=NCCO3)c[nH]c2c1,-1.12,nt
CNC(C)(C)Cc1ccccc1,nt,2.26
CCN1CC2(C)CC[C@H](OC)[C@]34C2[C@H](O)C2(OCO[C@@]25C[C@H](OC)[C@H]2C[C@]3(O)C5[C@H]2O)C14,nt,0.98
Oc1ccc2c3c1O[C@H]1c4oc5ccccc5c4C[C@@]4(O)C(C2)N(CC2CC2)CCC314 (stereo not given in full),0.17,nt
CC12CN(CO)CC(C)(CN(CC(N)=O)C1)C2=O,-2.5,-2.21

# Given with each value named: entries from further up
> c1ccc2c(C3=NCCO3)c[nH]c2c1
  CDC25B CDK2 inh: -1.12 | TAR Tat displ: nt
> CNC(C)(C)Cc1ccccc1
  CDC25B CDK2 inh: nt | TAR Tat displ: 2.26
> CCN1CC2(C)CC[C@H](OC)[C@]34C2[C@H](O)C2(OCO[C@@]25C[C@H](OC)[C@H]2C[C@]3(O)C5[C@H]2O)C14
  CDC25B CDK2 inh: nt | TAR Tat displ: 0.98
> Oc1ccc2c3c1O[C@H]1c4oc5ccccc5c4C[C@@]4(O)C(C2)N(CC2CC2)CCC314 (stereo not given in full)
  CDC25B CDK2 inh: 0.17 | TAR Tat displ: nt

# Carrying on:
SMILES,CDC25B CDK2 inh,TAR Tat displ
O=C1CCN(C(=O)c2cccs2)CC1,-1.22,-0.5
CCCC(C)n1[nH]c(=O)c2c1NC(=O)CSC2c1ccc(Cl)cc1 (stereo not given),-1.82,2.02
CN1CC=C(c2noc(CCC(=O)N3CCN(c4ccccc4F)CC3)n2)CC1,-2.44,1.31
Clc1cccc(CN2CCN(Cc3cccc(Br)c3)CC2)c1,-1.32,1.16
O=c1[nH]c2ccc(Br)cc2c(=O)n1-c1ccccc1,-1.21,nt
COc1ccc(CNCCc2ccc3c(c2)OCO3)cc1Br,-0.75,0.14
Nc1ccncc1,0.01,1.13
Cc1ccc2c(c1)C(Cc1nc3ccccc3c(=O)n1-c1ccc(Br)cc1)C(=O)N2 (stereo not given),-1.65,2.31
C=CCc1cc(OC)c2c(c1OC)OCO2,nt,-0.63
CC(=O)N1N=C(c2cncc(Br)c2)OC1c1ccc(F)cc1 (stereo not given),nt,2.35
O=C1Nc2ccc(Cl)cc2C(c2ccccc2Cl)=NC1O (stereo not given),nt,1.49
O=C(Nc1cccc(C(F)(F)F)c1)OC1CN2CCC1CC2 (stereo not given),-0.47,nt
S=C(Nc1ccccc1)N1CCCCC1c1cccnc1 (stereo not given),-1.66,nt
COc1ccc2c3c1O[C@H]1[C@@H](O)CC=C4[C@@H](C2)N(C)CC[C@]431,nt,-1.17
CSc1cccc(NC(=O)CCc2nc(C3=CCN(C)CC3)no2)c1,-2.52,3.06

SMILES,CDC25B CDK2 inh,TAR Tat displ
CCn1nc(/C=C\c2ccccc2)nc2c(=O)n(C)c(=O)nc1-2,-1.59,1.48
Cc1[nH]nc2c1C(c1cccc(Cl)c1)SCC(=O)N2 (stereo not given),-0.54,1.26
Cc1ccc(S(=O)(=O)N2CN3CCN(C3)C2)cc1,-0.3,nt
O=C1/C(=C\c2ccc3c(c2)OCO3)N2CCC1CC2,-1.69,nt
CCCCCCC(C)(C)c1cc(OC)c(C2C=C(CO)C3CC2C3(C)C)c(OC)c1 (stereo not given),nt,0.51
COC(=O)COc1cc(C)cc2oc(=O)c3c(c12)CCCC3,-0.48,nt
N#CC1=C(N)Oc2c(c(=O)oc3ccccc23)C1c1ccc(O)cc1 (stereo not given),0.1,nt
Oc1ccc(Br)cc1CN1CCN(Cc2cccc(F)c2)CC1,-0.55,0.81
COc1ccccc1C1SCC(=O)Nc2c1c(=O)[nH]n2C(C)C (stereo not given),-1.9,2.37
Cc1cccc(-c2nc(CN3C(=O)CN=C(c4ccccc4)c4ccccc43)c(C)o2)c1,-0.74,nt
CNC(=O)Oc1ccc(-c2nc(CSc3ccc(Cl)cc3)cs2)cc1,-8.4,nt
CN(C)/C=C\c1oc2c(c3c4ccccc4nc1-3)C(=O)CC(C)(C)C2,-0.46,nt
CCNc1ccc([N+](=O)[O-])cc1[N+](=O)[O-],0.19,nt
Nc1c(Oc2ccccc2)cc(O)c2c1C(=O)c1ccccc1C2=O,-1.02,nt
C=CCC1(CC=C)C(=O)N(C)C(=O)N(C)C1=O,1.06,1.6

SMILES,CDC25B CDK2 inh,TAR Tat displ
c1cc2c(cc1[C@H]1OC[C@H]3[C@@H]1CO[C@H]3c1ccc3c(c1)OCO3)OCO2,nt,-0.66
COc1ccc(Br)cc1/C=C(\C)[N+](=O)[O-],-1.51,nt
COc1ccc(CNCCc2ccc3c(c2)OCO3)cc1OC,-1.55,-0.66
O=[N+]([O-])c1ccc(N2CCCCC2)c2nonc12,0.34,nt
CC(C)[C@]12O[C@H]1[C@@H]1O[C@]13[C@]1(O[C@H]1C[C@H]1C4=C(CC[C@@]13C)C(=O)OC4)[C@@H]2O,nt,0.03
Cc1nn(-c2ccccc2Cl)c2c1C(c1ccc3c(c1)OCO3)SCC(=O)N2 (stereo not given),-1.4,0.2
CCCCCn1cc(C(=O)c2cccc3ccccc23)c2ccccc21,nt,0.95
Cc1cc(C)nc(-n2nc(C)c3c2NC(=O)CSC3c2cccc(F)c2F)n1 (stereo not given),-0.81,-0.33
c1ccc2c(c1)[nH]c1cnccc12,nt,3.31
C=C1[C@@H](C)[C@H]2[C@H](Cc3ccccc3)NC(=O)[C@]23[C@H](OC(C)=O)/C=C/[C@](C)(O)C(=O)[C@@H](C)C/C=C/[C@H]3[C@@H]1O,nt,2.34
Clc1cccc(C2CC(c3cccnc3)Nc3nnnn32)c1 (stereo not given),-1.74,nt
CC(C)OC(=O)Nc1cccc(Cl)c1,nt,2.71
CSc1ccc(CN2CCN(Cc3ccc(Cl)cc3)CC2)cc1,0.54,-0.91
OCc1cnc[nH]1,-1.59,nt
C=CCOc1ccc(C2SCC(=O)Nc3c2c(=O)[nH]n3C(C)CCC)cc1 (stereo not given),-0.79,2.55

SMILES,CDC25B CDK2 inh,TAR Tat displ
Cc1ccc2scc(N3CCN(C)CC3)c(=O)c2c1,nt,0.75
COC(=O)c1sc2nc3c(cc2c1N)CN(C)CC3,0.56,-0.26
CCC(=O)N1N=C2C3CCN(CC3)C2C1c1ccccc1C (stereo not given),0.85,0.92
CC(=O)N1N=C2C3CCN(CC3)C2C1c1cc(C)cc(C)c1 (stereo not given),-1.13,2.34
CCCOC(=O)COc1cc(C)cc2oc(=O)c3c(c12)CCCC3,-1,nt
CCCCC12CNCC(C)(CNC1)C2=O,-1.4,1.71
O=c1oc2ccccc2c2c1C(c1cccc([N+](=O)[O-])c1)c1c(c3ccccc3oc1=O)O2,0.55,nt
CCCCOC(=O)C1=C(N)OC2=C(C(=O)CC(C)(C)C2)C12C(=O)Nc1ccccc12 (stereo not given),-1.96,nt
Cc1ccc(S(=O)(=O)ON2CC2(C(F)(F)F)C(F)(F)F)cc1 (stereo not given),-0.02,nt
Cc1cc(C)cc(C(=O)OC2CC3CCC(C2)N3C)c1 (stereo not given),-0.78,nt
O=c1[nH]c2ccccc2n1C1CCNCC1,-0.86,nt
Cc1ccccc1CNCCc1c[nH]c2ccccc12,-0.75,nt
CCc1cc2c(OC(=O)N(C)C)ncnc2s1,-1.56,nt
CNc1ccc(C)cc1C(=O)c1ccc(Br)cc1,-2.16,0.05
C[N+](C)=C1C=CC(=CC=C2C=C(C(C)(C)C)OC(C(C)(C)C)=C2)C=C1,-2.99,nt

SMILES,CDC25B CDK2 inh,TAR Tat displ
CC[n+]1c(Cc2nn3c(C)cc(C)nc3[n+]2CC)nn2c(C)cc(C)nc21,-4.18,nt
O=S(=O)(c1ccccc1)N1CCCCC1c1cccnc1 (stereo not given),nt,-1.9
Cc1ccccc1-n1nc(C)c2c1NC(=O)CSC2c1ccc(Br)cc1 (stereo not given),-1.2,2.06
COc1ccc2c(C(O)CN3CCC(C)CC3)c[nH]c2c1 (stereo not given),-1.65,-1.28
c1cc2c(cc1C1OC[C@@H]3C(c4ccc5c(c4)OCO5)OC[C@H]13)OCO2 (stereo not given in full),nt,1.95
Cn1c2ccccc2c2cnn(CC(=O)N3CCC4(CC3)OCCO4)c(=O)c21,-1.87,nt
CC(C)C12CN3CN(CC(C)(C3)C1=O)C2,-1.82,1.04
O=C1C2CCCN2C(c2cccc(Cl)c2)N1c1ccccn1 (stereo not given),-0.76,nt
O=C(Cn1ncc2ccsc2c1=O)N1CCC2(CC1)OCCO2,0.13,nt
c1ccc2oc(C3CCNCC3)nc2c1,nt,2.82
NC(=O)c1ccc(N)nc1,nt,1.44
COc1cc(C2C(C#N)=C(N)Oc3c2c(=O)oc2ccccc32)cc(OC)c1OC (stereo not given),-1.31,nt
c1ccc2[nH]c(C3CCNCC3)nc2c1,-0.66,0.09
C[C@@]1(CO)[C@H](O)CC[C@@]2(C)[C@H]1CC[C@H]1C[C@@H]3C[C@@]12CC[C@]3(O)CO,nt,-6.87
CCOP(=S)(OCC)SCSP(=S)(OCC)OCC,nt,1.49

SMILES,CDC25B CDK2 inh,TAR Tat displ
FCCOc1ccc(OCCF)cc1,-1.69,nt
c1ccc2sc(C3(N4CCCCC4)CCCCC3)cc2c1,-2.08,nt
NC(N)=N/N=C/C=N/N=C(N)N,-1.29,nt
CCOc1cc(C2SCC(=O)Nc3c2c(-c2ccccc2)nn3-c2nc(C)cc(C)n2)ccc1O (stereo not given),-1.05,0.31
CC1=C(C#N)C(c2cnc[nH]2)C2=C(CCCC2=O)N1 (stereo not given),-0.2,nt
CCCCCC[C@H]1C(=O)O[C@H](C)[C@H](NC(=O)c2cccc(NC=O)c2O)C(=O)O[C@@H](C)[C@@H]1OC(=O)CC(C)C,nt,1.2
CCC(=O)Nc1ccc(Cl)c(Cl)c1,nt,0.92
CCC(C)n1[nH]c(=O)c2c1NC(=O)CSC2c1ccc(OC)cc1 (stereo not given),0.87,0.65
Brc1ccc(CN2CCNCC2)cc1,-1,nt
Cc1ccc(C2SCC(=O)Nc3c2c(C)nn3-c2ccccc2)c(C)c1 (stereo not given),-1.2,-0.37
c1cncc(CNCCc2c[nH]c3ccccc23)c1,0.03,nt
CC(C)Oc1ccc(C(c2c(O)c3ccccc3oc2=O)c2c(O)c3ccccc3oc2=O)cc1,-3.19,nt
CC1c2cccn2-c2ccccc2CN1C(=O)Nc1ccccc1F (stereo not given),nt,0
COc1ccc(C(CC(=O)N2CCC3(CC2)OCCO3)NS(=O)(=O)c2ccc(F)cc2)cc1 (stereo not given),0.02,nt
CN(C)Cc1c[nH]c2ccccc12,-1.92,-0.32

SMILES,CDC25B CDK2 inh,TAR Tat displ
COc1ccc(OC)c(C(c2c(O)c3ccccc3oc2=O)c2c(C)n(C)n(-c3ccccc3)c2=O)c1 (stereo not given),-0.97,nt
CC12CN3CC(C)(CN(C1)C3c1ccco1)C2O (stereo not given),-0.54,3.11
CC(C)c1ccc(C(=O)C2CN3CCC2CC3)cc1 (stereo not given),-1.12,0.42
CNC(C)C(O)c1ccccc1 (stereo not given),nt,-0.14
Cc1noc2ncn(CC(=O)c3c(C)n(C)c4ccccc34)c(=O)c12,nt,1.41
O=C(NCc1ccco1)N1Cc2ccccc2-n2cccc2C1c1ccccc1 (stereo not given),nt,2.12
